# Bioassay records from PubChem.
# LASV entry inh – blocks Lassa virus binding to or entry into cells. Potency, µM (top dose mostly 37.9 µM), inactives show at the top dose activity change, negative = inhibition, most hits filed as inhibitors. AID 540256. Lassa virus pseudotype entry inhibition, cell reporter; control for the full effect not named in the record. 300,000 compounds, 1.2% hits; active means well fitted inhibition curve with a large enough effect; inconclusive means small, poorly fitted or top-dose-only effect, or effect the other way; inactive means flat fitted curve, though single readings scatter; tested in HEK293 cells; further: on the % scale 0 is the no-effect control and ±100 the full control effect; nearly all actives have a fitted effect of over 50% in size; luciferase read-out
# RE007 growth inh – less growth of the S. pombe RE007 Vpr strain; Potency, µM (top dose mostly 92.2 µM), inactives show at the top dose activity change, negative = less growth; S. pombe RE007 Vpr strain, BacTiter-Glo ATP luminescence, 24 h; control for the full effect not named in the record; AID 651644; 360,000 compounds, 0.21% hits; active = well fitted falling curve with a large enough effect; inconclusive = small, poorly fitted or top-dose-only effect; inactive = no such curve, though single readings can be large or run the other way;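 further: on the % scale 0 is the no-effect control and ±100 the full control effect; nearly all actives have a fitted effect of over 50% in size; the assay follows cell death caused by Vpr and the record does not say whether a fall means rescue or toxicity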
#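 Fission yeast strain RE007, carrying one chromosomally integrated HIV-1 vpr copy, was seeded at OD 0.01 in PMG+AL medium with 23 nL pinned compound. After 24 h at 30 °C and 99% humidity, viability was read by BacTiter-Glo luminescence.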
# NS1 inh – blocks influenza NS1 protein function; S. cerevisiae slowed by influenza A NS1, growth recovery by OD600; Potency, µM (titrated, usually from 46.1 µM), for inactives: at the top dose activity, positive = more growth; 270,000 compounds, 0.4% hits; active means well fitted rising curve with a large enough effect; inconclusive means small, poorly fitted or top-dose-only effect; inactive means no such curve, though single readings can be large or run the other way; further: nearly all actives have a fitted effect of over 50% in size
#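 Recovery from NS1-induced slow growth read by OD600 in budding yeast switched to galactose assay medium (pH 6.0, -URA) at 1:100 dilution. Compound 23 nl per well; the matching strain lacking NS1 serves as control.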
# Marburg entry inh – Marburg virus entry inhibition; Marburg virus pseudotyped entry inhibition, cell reporter; control for the full effect not named in the record; about a third of the inactives were read at about 46 µM; Potency, µM (highest dose often 37.8 µM), for inactives: at the top dose activity change, negative = inhibition, usual class: inhibitors; 300,000 compounds, 1.8% hits; active = well fitted inhibition curve with a large enough effect; inconclusive = small, poorly fitted or top-dose-only effect, or effect the other way; inactive = flat fitted curve, though single readings scatter; tested in HEK293 cells; about a fifth of its hits are not listed in these tables; further: on the % scale 0 is the no-effect control and ±100 the full control effect; luciferase read-out
# StopGo reporter – lowers the luciferase signal of an FMDV 2A StopGo reporter. human cells with a luciferase reporter of 2A StopGo recoding; control for the full effect not named in the record. Potency, µM (top dose mostly 57.9 µM), without a hit: at the highest dose signal change, negative = less light. 410,000 compounds, 1.2% hits. AID 1159524; active = well fitted falling curve with a large enough effect; inconclusive = small, poorly fitted or top-dose-only effect; inactive = no such curve, though single readings can be large or run the other way; tested in HEK293T cells; further: on the % scale 0 is the no-effect control and ±100 the full control effect; nearly all actives have a fitted effect of over 45% in size; luciferase light after 4 h
# Cruzain inh noDet – cruzain (T. cruzi) inhibition without detergent | Potency, µM, without a hit: max response, negative = inhibition, most hits filed as inhibitors | P25779 | AID 1476 | purified cruzain, Z-FR-AMC fluorescence, no detergent | 200,000 compounds, 2.3% hits;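 further: plate controls were enzyme without inhibitor for no effect and buffer without enzyme for full effect; nearly all actives have a fitted effect of over 40% in size; top concentration of the series not given in the record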
# Target sequence (P25779 123-467 limits assumed): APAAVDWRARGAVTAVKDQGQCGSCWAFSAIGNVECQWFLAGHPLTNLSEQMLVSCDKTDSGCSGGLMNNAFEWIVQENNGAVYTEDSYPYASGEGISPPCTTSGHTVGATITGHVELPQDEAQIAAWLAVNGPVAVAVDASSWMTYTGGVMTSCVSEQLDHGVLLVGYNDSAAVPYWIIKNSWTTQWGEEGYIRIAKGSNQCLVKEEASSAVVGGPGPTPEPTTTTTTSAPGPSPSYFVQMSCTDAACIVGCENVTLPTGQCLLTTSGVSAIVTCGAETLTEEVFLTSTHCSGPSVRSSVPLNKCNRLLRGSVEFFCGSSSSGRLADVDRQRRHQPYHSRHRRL
#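 Detergent-free condition (0.00005% Triton X-100) in acetate buffer pH 5.5 with DTT. 1.5 nM enzyme and compound were pre-mixed 15 min, then 2 uM Z-FR-AMC substrate added; reaction progress from fluorescence change between first and third reads (60 s).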
# SARS PLpro yeast – inhibitors of SARS-CoV papain-like protease in yeast. S. cerevisiae expressing SARS-CoV PLpro, growth rescue; control for the full effect not named in the record. Potency, µM (series often up to 32.9 µM), for inactives: top-dose activity, positive = growth rescue. 330,000 compounds, 0.19% hits. AID 485353; active means well fitted rising curve with a large enough effect; inconclusive means small, poorly fitted or top-dose-only effect; inactive means no such curve, though single readings can be large or run the other way; further: 0% is about no effect; nearly all actives have a fitted effect of over 55% in size; growth read by luminescence after 48 h
# Cruzain Triton – inhibitors of Trypanosoma cruzi cruzain with detergent | P25779 | purified cruzain, Z-FR-AMC fluorescence, 0.01% Triton | Potency, µM, inactives show max response, negative = inhibition, most hits filed as inhibitors | 200,000 compounds, 0.43% hits;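 further: plate controls were neutral wells for no effect and buffer without enzyme for full effect; nearly all actives have a fitted effect of over 40% in size; top concentration of the series not given in the record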
#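 Detergent-containing run (0.01% Triton X-100) in acetate buffer pH 5.5 with 5 mM DTT: enzyme at 1.5 nM final, 15 min compound preincubation at room temperature, then 2 uM Z-FR-AMC substrate. Activity taken as 60 s fluorescence increase at 360/450 nm.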
# Numbers without * were called inactive; ? = inconclusive; . = not tested or not shown; & = joins results of further samples; [ ] = dose if it differs, or a comment. Unless noted, the call rests on the fitted dose curve; in most records, active means well fitted curve in the direction sought with a large enough effect; inconclusive means small, poorly fitted or top-dose-only effect, or another doubt; inactive means no such curve, though single readings can be large; an effect the other way counts as inactive or inconclusive. Potency means the concentration at half of the fitted maximal effect. Not a hit list; about 4.6% have a hit in one of these screens.
# Sample of the layout:
SMILES,LASV entry inh,RE007 growth inh,NS1 inh,Marburg entry inh,StopGo reporter,Cruzain inh noDet,SARS PLpro yeast,Cruzain Triton
COC(=O)c1ccc(N(C(=O)CNC(=O)c2ccco2)C(C(=O)NC2CCCC2)c2ccco2)cc1 (stereo not given),19%,-4%,-30%,-41%,-5%,2%,-4%,-2.0%
Cn1c(=O)c2c(SCC(=O)N3CCOCC3)nc(-c3ccccc3Cl)nc2n(C)c1=O,7%,-25%,10%,-6%,-25%,.,24%,.
CC(C)C(=O)Nc1ccc(Sc2ccc(F)cc2)cc1,-18%,2%,-92%,-15%,-29%,-8%,-20%,-1.8%
CCCCC(=O)Nc1ccc2nc(SCC(=O)N3CCOCC3)sc2c1,4%[46.1 µM],.,.,4%[46.1 µM],-9%,8%,.,-3.0%
COc1ccc(C(=O)NC(=S)Nc2nc(C)cc(C)n2)cc1Br,5%[46.1 µM],5%,-36%,1%[46.1 µM],18%,.,-1%,.
COc1cccc(N2CCN(C(=O)c3[nH]c(C)c(C(C)=O)c3C)CC2)c1,0%,0%,4%,?,-26%,-3%,4%,3.7%
CCOc1ccc(NC(=O)CCc2ccc(C)o2)cc1,.,12%,-9%,.,11%,.,-3%,.

# Main list, previewed entries included:
SMILES,LASV entry inh,RE007 growth inh,NS1 inh,Marburg entry inh,StopGo reporter,Cruzain inh noDet,SARS PLpro yeast,Cruzain Triton
COC(=O)c1ccc(N(C(=O)CNC(=O)c2ccco2)C(C(=O)NC2CCCC2)c2ccco2)cc1 (stereo not given),19%,-4%,-30%,-41%,-5%,2%,-4%,-2.0%
Cn1c(=O)c2c(SCC(=O)N3CCOCC3)nc(-c3ccccc3Cl)nc2n(C)c1=O,7%,-25%,10%,-6%,-25%,.,24%,.
CC(C)C(=O)Nc1ccc(Sc2ccc(F)cc2)cc1,-18%,2%,-92%,-15%,-29%,-8%,-20%,-1.8%
CCCCC(=O)Nc1ccc2nc(SCC(=O)N3CCOCC3)sc2c1,4%[46.1 µM],.,.,4%[46.1 µM],-9%,8%,.,-3.0%
COc1ccc(C(=O)NC(=S)Nc2nc(C)cc(C)n2)cc1Br,5%[46.1 µM],5%,-36%,1%[46.1 µM],18%,.,-1%,.
COc1cccc(N2CCN(C(=O)c3[nH]c(C)c(C(C)=O)c3C)CC2)c1,0%,0%,4%,?,-26%,-3%,4%,3.7%
CCOc1ccc(NC(=O)CCc2ccc(C)o2)cc1,.,12%,-9%,.,11%,.,-3%,.
COc1cccc(C(=O)Oc2ccc3c(C)cc(=O)oc3c2C(C)=O)c1,?,5%,11%,-2%,2%,?,-11%,-0.2%
O=c1c2ccccc2nc(N2CCCC2)n1-c1ccccc1,.,1%,3%,.,-18%,17%,0%,3.0%
CCOc1ccc(-c2csc(-c3c(N)c(C(=O)c4ccc5c(c4)OCO5)n4ccccc34)n2)cc1,9%[46.1 µM],.,.,1%[46.1 µM],5%,11%,.,-1.2%
COc1ccc(/C=C/C(=O)Nc2ccc(-n3nncc3-c3ccc(OC)c(OC)c3)cc2)cc1OC,?,11%,13%,-25%,?,?,-5%,-15%
O=C(NCc1cccc(C(F)(F)F)c1)c1ccc[nH]1,.,3%,-3%,.,17%,.,0%,.
C=CCNC(=O)Nc1cc(Cl)ccc1OC,2%,-6%,-1%,20%,-13%,.,1%,.
Cc1cc(C)c2c3c(sc2n1)C(=O)N(c1ccccc1C)CC(=O)N3,5%,-5%,0%,22%[46.1 µM],-29%,.,0%,.
CCONC(=O)Nc1ccccc1,18%,-11%,-4%,25%,-3%,-1%,-4%,0.4%
Cc1ccccc1CNC(=O)C1CCC(=O)N(C2CCCCCC2)C1 (stereo not given),6%,5%,7%,7%,-12%,.,-2%,.
COC(=O)c1ccccc1NC1CC(=O)N(c2c(C)cccc2C)C1=O (stereo not given),1%,-3%,11%,2%,-24%,-1%,-29%,-5.8%
O=C(/C=C/c1ccc(OCc2cccc(Cl)c2)cc1)N1CCOCC1,-20%[46.1 µM],9%,.,2%[46.1 µM],0%,.,-3%,.
CCn1ncc(C2=NOC(C(=O)Nc3cccnc3)C2)c1C (stereo not given),26%[14.3 µM],0%,7%,17%,16%,-3%,14%,2.3%
CCN(C(=O)CN1CCN(c2ccccc2OC)CC1)c1c(N)n(Cc2ccccc2)c(=O)[nH]c1=O,23%,-4%,5%,5%&24%,-13%,-17%,0%,4.1%
COc1ccc(/C=C/C(=O)c2c(O)cc(C)oc2=O)c(OC)c1,15%,0%,7%,-7%,10%,4%,2%,-14%
NC(=O)NOCc1ccc(F)cc1Cl,19%[46.1 µM],-2%,5%,-2%[46.1 µM],12%,.,1%,.
Cc1cc[n+](C2=C([O-])c3ccccc3C(=O)/C2=N\S(=O)(=O)c2cccs2)cc1C,?,12%,13%,?,-24%,-1%,-2%,-6.6%
Cc1ccc2c(c1)N(CC(=O)NC1CCC(C)CC1)C(=O)c1cccnc1O2 (stereo not given),.,9%,3%,.,0%,.,5%,.
COc1ccc(CCCc2nnc(SCC(=O)Nc3cc(C)ccc3C)o2)cc1,-13%[46.1 µM],1%,-45%,?,4%,3%&5%,0%,-4.6%&-6.6%
Cc1ccc(NC(=O)c2cc3nc(C)cc(C)n3n2)cc1,?,18%,-51%,?,-13%,2%,1%,2.3%
CCCn1cc(CN2CCC(n3nccc3NC(=O)C(OC)c3ccccc3)CC2)c(C)n1 (stereo not given),.,-18%,2%,.,-7%,.,-2%,.
COc1cc(C2C(C(=O)c3ccc(C)o3)=C(O)C(=O)N2CCc2ccccc2)ccc1O (stereo not given),7%,18%,5%,-1%,-15%,4%,2%,-4.5%
O=C(c1ccccc1)C1C(=O)c2ccccc2C1=O,14%,?,-47%,8%,-7%,3%,-9%,1.5%
OCCNCc1cc(Br)ccc1OCc1ccc(Cl)cc1Cl,11µM*,21%,-5%,11µM*,0%,-7%,-30%,-9.7%
COc1ccc(C(=O)NCCSC2CCCCC2)cc1,?,61%,-2%,?,64%[activator],6%,-1%,-3.4%
NC(=O)NNc1cccc(Cl)n1,.,-6%,6%,.,8%,.,1%,.
CCCCCCn1c(COc2ccccc2F)nnc1SCC(=O)c1c(N)n(C)c(=O)n(C)c1=O,4%,.,?,-8%,.,4%,-12%,4.8%
O=C(CCN1C(=O)C2C3C=CC(C3)C2C1=O)N1CCN(c2cccc(Cl)c2)CC1 (stereo not given),-4%,5%,1%,?,?,?,2%,3.3%
O=C(COC(=O)CCc1nc2ccccc2c(=O)[nH]1)Nc1ccc(Cl)cn1,.,-8%,-1%,.,-3%,.,0%,.
Cc1ccc(OCC(=O)OCC(=O)c2cccc([N+](=O)[O-])c2)cc1C,0%,4%,-14%,-13%,-11%,.,3%,.
CCOC(=O)c1c(C)[nH]c(CCC(=O)Nc2ccccc2C(=O)OC)c1C,-17%[46.1 µM],.,.,.,-8%,5%,.,-0.9%
Cc1ccc(NC(=O)/C(=C\c2cccc(Br)c2)NC(=O)c2ccco2)cc1,15%,11%,-6%,-2%,.,9%,-21%,-1.5%
O=C(COC(=O)c1ccc([N+](=O)[O-])o1)NC1CCCCC1,-1%,-18%,.,.,-6%,.,-5%,.
Cc1ccccc1N1CCN(C2CCCN(C(=O)c3ocnc3C)C2)CC1 (stereo not given),-13%,-5%,1%,5%,-18%,.,-6%,.
Cc1cccc(NC(=O)Cn2cnc3c(oc4nc5c(cc43)COC(C)(C)C5)c2=O)c1,-3%,16%,-5%,15%,2%,14%,13µM*,0.3%
CCOC(=O)c1cc2c(ccn2C)n1CC(=O)N(C)C,.,-12%,9%,.,-9%,.,0%,.
O=C(NCC(c1ccco1)N1CCc2ccccc2C1)c1cccc([N+](=O)[O-])c1 (stereo not given),7%,-3%,.,-2%,-21%,.,2%,.
Cc1cc(=O)n2[nH]c(NCc3ccc(F)cc3)nc2n1,?,.,.,10%[46.1 µM],-1%,-12%,.,2.5%
O=C(Nc1ccc2c(c1)OCCO2)c1cccc(S(=O)(=O)N2CCOCC2)c1,25%,4%,-13%,32%,31%[activator],4%,4%,-1.9%
Cc1cc2c(cc1C)CN(c1ccccc1)C2,.,-20%,3%,.,21%,.,-1%,.
CCN1CCN(CCOc2cccc(Oc3ccccc3)c2)CC1,.,5%,3%,.,-1%,.,0%,.
Cc1cccc(-n2nnc3cnn(C)c3c2=O)c1,9%,0%,-5%,?,-3%,-3%,4%,-2.9%
Cc1cc(=O)[nH]c2c(N=Nc3ccc(O)cc3)c(N)nn12,.,0%,2%,.,-12%,.,0%,.
COc1ccc(Br)cc1CNc1ccc(N2CCOCC2)cc1,.,-14%,2%,.,0%,.,1%,.
C=CCn1c(O)c(C=NCCN2CCNCC2)c(=O)[nH]c1=O,-2%,18%,8%,-8%,0%,6%,-2%,-2.1%
COc1ccccc1NC(=O)Nc1ccccc1N1CCOCC1,?,1%,-4%,?,-8%,.,-1%,.
O=C(CNC(=S)N(Cc1ccc(F)cc1)C1CCCCC1)NCCN1CCOCC1,-15%,19%,.,-20%[46.1 µM],-15%,.,-4%,.
COC(=O)CSc1nnc(Cc2cc(=O)[nH]c(=O)[nH]2)n1-c1cccc(OC)c1,?,5%,4%,-1%,7%,2%,-1%,2.5%
O=C(CSc1nc2ccccc2nc1Cc1ccccc1)Nc1ccc2c(c1)OCO2,28%[46.1 µM],.,.,.,22%,-17%,.,3.7%
COc1ccc(NC(=O)COc2nsnc2N2CCOCC2)cc1,9%,12%,0%,1%,-3%,.,0%,.
